# VDR inhibitor – Inhibitors of the vitamin D receptor (VDR): qHTS. 400,000 compounds, 0.93% hits. Vitamin D3 receptor (Homo sapiens), P11473. Potency, µM, for inactives: max response, negative = inhibition, most hits filed as inhibitors. VDR-SRC2-3 peptide fluorescence polarization, 2 h; active means well fitted inhibition curve with a large enough effect; inconclusive means small, poorly fitted or top-dose-only effect, or another doubt; inactive means no such curve, though single readings can be large or run the other way; further: series mostly up to about 120 µM
# Target sequence (P11473 whole entry, looked up): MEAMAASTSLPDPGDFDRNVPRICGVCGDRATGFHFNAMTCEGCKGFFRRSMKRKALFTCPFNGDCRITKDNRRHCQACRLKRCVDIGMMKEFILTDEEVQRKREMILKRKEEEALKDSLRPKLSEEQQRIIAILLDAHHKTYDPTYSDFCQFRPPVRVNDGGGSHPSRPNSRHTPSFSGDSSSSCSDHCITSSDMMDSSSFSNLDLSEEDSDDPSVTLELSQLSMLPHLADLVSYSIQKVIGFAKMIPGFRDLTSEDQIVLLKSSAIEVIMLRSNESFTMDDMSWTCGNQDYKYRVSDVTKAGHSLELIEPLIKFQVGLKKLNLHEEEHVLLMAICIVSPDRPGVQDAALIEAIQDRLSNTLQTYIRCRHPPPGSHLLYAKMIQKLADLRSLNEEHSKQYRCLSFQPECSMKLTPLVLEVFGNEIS
#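 VDR–SRC2-3 interaction, FP format. Cmpds 23 nl via pintool, brief spin, 2 h ambient incubation.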
# Numbers without * were called inactive; ? = inconclusive; & = joins results of further samples; [ ] = remark or other dose. On the % scale 0 is the no-effect control and ±100 the full control effect; potency means the concentration at half of the fitted maximal effect.
SMILES,VDR inhibitor
O=C(COC(=O)Cn1[nH]c(=O)c2ccccc2c1=O)Nc1ncc(Cl)cc1Cl,5%
O=C(NCCCn1ccnc1)C(=O)NCC(c1cccnc1)N1CCN(c2ccccc2)CC1 (stereo not given),-2%
O=C(NCCCN1CCOCC1)C(=O)NCc1ccccc1Cl,20%
CCOC(=O)c1sc2cc([N+](=O)[O-])cc(SCC(=O)OC)c2c1N,?
COc1ccccc1C1(CCN=Cc2ccc(N(C)C)cc2)CCOC(C)(C)C1 (stereo not given),23%
C[C@@]12C=CC(=O)C=C1CCC1C3CC(O)[C@@](O)(C(=O)CO)[C@]3(C)CC(O)[C@]12F (stereo not given in full),-7%
Cc1ccccc1CSc1nnnn1-c1ccc(C(N)=O)cc1,-9%
CCOc1ccc(C(CC(=O)O)n2cnnn2)cc1OC (stereo not given),3%
CS(=O)(=O)c1ccc([C@@H](O)[C@@H](COC(=O)CN)NC(=O)C(Cl)Cl)cc1,1%
O=C(NC(=S)Nc1ccccn1)c1ccc(-c2ccccc2)cc1,1%
CC(=O)Nc1ccccc1OCCOc1ccc(Br)cc1,6%
COc1ccccc1/C=C\C(=O)NCC(=O)N/N=C(\C)Cc1ccccc1,10%
CCOc1ccc(CC(=O)N/N=C(\C)c2cccnc2)cc1,7%
CCOc1ccc2nc(SCC(=O)Nc3ccc(S(=O)(=O)N4CCCC4)cc3)c(C)cc2c1,54%[activator]
CCCCN(C)CCNC(=O)c1c[nH]c2ccc(S(=O)(=O)N(CC)CC)cc2c1=O,3%
COc1cc(OCc2ccccc2)c(OC)c(OCc2ccccc2)c1,-4%
Cc1ccc(NC(=O)C2(c3ccccc3)CCOCC2)c([N+](=O)[O-])c1,0%
Cc1cc(NC(=O)CCC(=O)N(c2cccc(F)c2)C(C(=O)NC2CCCC2)c2ccncc2)no1 (stereo not given),-12%
COC(=O)Nc1ccc(S(=O)(=O)N2CCC(C(=O)NC3CCCCC3)CC2)cc1,4%
CC1CCCCC12NC(=O)N(CC(=O)Nc1ccc(Cl)c(S(=O)(=O)N3CCOCC3)c1)C2=O (stereo not given),-2%
CCOc1ccc(CCNC(=O)c2cc3c(-c4ccc(OC)c(OC)c4)nn(C)c3s2)cc1OCC,-4%
Cc1cccc(-c2nnc3sc(-c4ccccc4)nn23)c1,-3%
C[C@@H](NC(=O)Cn1ccc(N)nc1=O)c1cccc2ccccc12,5%
COc1ccc(NC(=O)N2CCCc3cccc(C)c32)cc1,-13%
C/C(=C\C(=O)c1ccc(Cl)cc1Cl)N(C)C,?
CCOC(=O)c1cc2c(=O)n3ccccc3nc2n(CC2CCCO2)c1=NC(=O)c1ccc(OCC)cc1 (stereo not given),-13%
COC(C[C@H]1O[C@@H]1[C@H](O)[C@H](C)OCc1ccccc1)OC,-3%
O=C(NCCCl)NNC(=O)c1cc2ccccc2cc1O,24%
CCOc1ccc(C(=O)c2nc3c(n2O)CCCCC3)cc1,12%
COc1cccc(-c2cn3c(n2)sc2cc(C(=O)NC4CCCCCC4)ccc23)c1,2%
Cc1nnc(SC(C)C(=O)Nc2ccc3c(c2)OCCO3)s1 (stereo not given),5%
O=C(NCc1ccccc1)c1cccc(S(=O)(=O)N2CCCCC2)c1,-12%
COc1cccc(-c2cc(C(=O)N3CCN(c4ncccn4)CC3)c3ccccc3n2)c1,4%
COc1cc(C(=O)NCC2CCCO2)ccc1OCc1ccccc1 (stereo not given),4%
CC(C)NC(=O)c1ccc2c(c1)N(Cc1cccc(Cl)c1)C(=O)c1ccccc1S2=O (stereo not given),13%
CCCC(=O)Nc1ccc(Cl)c(NC(=O)c2ccc(Br)o2)c1,-14%

# Taken from the entries so far (6 entries):
SMILES,VDR inhibitor
Cc1nnc(SC(C)C(=O)Nc2ccc3c(c2)OCCO3)s1 (stereo not given),5%
O=C(NCc1ccccc1)c1cccc(S(=O)(=O)N2CCCCC2)c1,-12%
COc1cccc(-c2cc(C(=O)N3CCN(c4ncccn4)CC3)c3ccccc3n2)c1,4%
COc1cc(C(=O)NCC2CCCO2)ccc1OCc1ccccc1 (stereo not given),4%
CC(C)NC(=O)c1ccc2c(c1)N(Cc1cccc(Cl)c1)C(=O)c1ccccc1S2=O (stereo not given),13%
CCCC(=O)Nc1ccc(Cl)c(NC(=O)c2ccc(Br)o2)c1,-14%

# (further entries)
SMILES,VDR inhibitor
CC(=O)c1cccc(-n2c(=O)c3c4c(sc3n(CC(=O)c3ccccc3)c2=O)CN(C(C)=O)CC4)c1,-12%
O=C(OCc1ccccc1)N1CCC2CC1c1c(Cl)cccc12 (stereo not given),-5%
O=C(NCC(=O)N(c1cccnc1)C(C(=O)NC1CCCCC1)c1cccnc1)c1ccco1 (stereo not given),11%
Cc1cc(C)c(C(=O)CSc2nc3ccccc3c(=O)[nH]2)cc1C,-14%
COc1ccc(NS(=O)(=O)c2cccc(C(=O)NCC(c3ccco3)N3CCCC3)c2)cc1 (stereo not given),-7%
COC(=O)c1nc(NC(=O)c2ccc(F)cc2)n[nH]1,-23%
CCOc1ccc(CN(C)C(=O)[C@H](C)NC(=O)c2ccco2)cc1OC,-11%
COc1ccc(C2=NOC(Cn3nc(-c4ccccc4)cc3C(=O)NCc3ccccc3OC)C2)cc1 (stereo not given),8%
Cc1nc(-c2cccc(F)c2)sc1CCNC(=O)C(=O)Nc1ccc2c(c1)OCO2,22%
COc1cc(/C=N/NC(=O)c2ccncc2)ccc1O,-3%&-12%
CCCCN(C)S(=O)(=O)c1ccc(C(=O)N(CCN(C)C)c2nc3ccc(C)cc3s2)cc1,-12%
CC(Oc1ccc(Br)cc1)C(=O)NC1CCN(Cc2ccccc2)CC1 (stereo not given),-12%

# Overlap with the part before: seven compounds, then new ones.
SMILES,VDR inhibitor
COC(=O)c1nc(NC(=O)c2ccc(F)cc2)n[nH]1,-23%
CCOc1ccc(CN(C)C(=O)[C@H](C)NC(=O)c2ccco2)cc1OC,-11%
COc1ccc(C2=NOC(Cn3nc(-c4ccccc4)cc3C(=O)NCc3ccccc3OC)C2)cc1 (stereo not given),8%
Cc1nc(-c2cccc(F)c2)sc1CCNC(=O)C(=O)Nc1ccc2c(c1)OCO2,22%
COc1cc(/C=N/NC(=O)c2ccncc2)ccc1O,-3%&-12%
CCCCN(C)S(=O)(=O)c1ccc(C(=O)N(CCN(C)C)c2nc3ccc(C)cc3s2)cc1,-12%
CC(Oc1ccc(Br)cc1)C(=O)NC1CCN(Cc2ccccc2)CC1 (stereo not given),-12%
COc1ccc(NC(=O)CN(C)CC(=O)NCCc2ccc(F)cc2)cc1,-5%
Cc1cccc(CS(=O)(=O)c2ncc(Cl)c(C(=O)Nc3c(C)cccc3C)n2)c1,22µM*
O=c1cc(Cl)[nH]c(=O)n1Cc1ccc(F)cc1,2%
CC1CCN(C2=C(NS(=O)(=O)c3ccc(Cl)cc3)C(=O)c3ccccc3C2=O)CC1,-9%
CN(C)c1ccccc1C(=O)N1CCCC(Nc2ccc(F)cc2)C1 (stereo not given),-10%
COc1ccc(NC(=O)CCC(=O)N/N=C/c2cccnc2)cc1,-19%
O=C(O)C1CCN(Cc2ccccn2)CC1,-1%
C=CCn1c(Cc2csc(N)n2)nnc1SCC(=O)OCC,13%
C1CCCCCC(NCCN2CCNCC2)CCCCC1,6%
COc1ccc(CCN(C)C(=O)CSc2nccn2C)cc1OC,5%
O=C(Cc1ccccc1[N+](=O)[O-])N1CCOCC1,-11%
Cc1cc(NC(=O)COC(=O)[C@@H]2CCCN2C(=O)c2cccs2)no1,-13%
C#CCOCCOCCOCCNc1nc(N2CCN(C(=O)[C@H](C)n3cc(CCC(=O)O)nn3)CC2)nc(N2CCN(C(=O)[C@H](CCCCN)n3cc(CCCC)nn3)CC2)n1,10%
CCC(=O)NC(=S)Nc1ccc(NC(=S)NC(=O)c2ccccc2)cc1,-2%
Cc1oc(-c2cccs2)nc1CS(=O)CC(=O)NCCc1ccccc1 (stereo not given),?
O=C(Cc1ccccc1)NCC(=O)OC(c1ccccc1)c1ccccc1,-15%
CC(C)C1C(C#N)=C(N)Oc2n[nH]c(-c3ccc4ccccc4c3)c21 (stereo not given),-8%
COc1ccc(N2CCN(CCCNC(=O)C(=O)c3c[nH]c4ccccc34)CC2)cc1,-7%
Cc1onc(-c2c(F)cccc2Cl)c1C(=O)Nc1nccs1,-9%
C(=N\NCc1ccccc1)/c1ccc2ncccc2c1,5%
COc1ccccc1CC(NC(C)=O)C(=O)NC1CCN(C(=O)NCc2ccccc2)CC1 (stereo not given),-1%
CCOC(=O)CC(NS(=O)(=O)c1ccc(NC(C)=O)cc1)c1ccc(OCC)cc1 (stereo not given),-4%
COc1ccc(OC)c(-c2csc(NC(=O)COC(=O)c3ccc(NC(=O)CC#N)cc3)n2)c1,14%
O=C(NNC(=O)C1CCN(S(=O)(=O)c2ccc(Cl)cc2)CC1)c1ccc(Cl)cc1,0%

# In another format: results already given
Structure	VDR inhibitor
CCOC(=O)CC(NS(=O)(=O)c1ccc(NC(C)=O)cc1)c1ccc(OCC)cc1 (stereo not given)	-4%
COc1ccc(OC)c(-c2csc(NC(=O)COC(=O)c3ccc(NC(=O)CC#N)cc3)n2)c1	14%
Cc1oc(-c2cccs2)nc1CS(=O)CC(=O)NCCc1ccccc1 (stereo not given)	?

# Following part
SMILES,VDR inhibitor
Cc1nn(CCCC(=O)NCc2ccccc2)c(=O)c2c1sc1ccccc12,2%
O=C(CSc1nnc(-c2ccc(O)cc2)o1)c1ccc(Br)cc1,5%
O=C(Nc1ccccc1Cl)O/N=C/c1ccncc1,1%
O=C(O)c1ccc(Oc2nc3ccccc3s2)cc1,-2%
CCOC(=O)c1cc2c(OC)ccc(OC)c2n1CC(=O)c1ccccc1,-13%
COc1ccccc1N1CCN(S(=O)(=O)c2c(C)sc3ncn(CC(=O)Nc4ccccc4F)c(=O)c23)CC1,-11%
O=C(NNC(=O)c1cc2ccccc2oc1=O)c1ccccc1,-21%
Cc1c(Cl)cccc1NC(=O)CSc1ncc2c(n1)-c1ccccc1N(C)S2(=O)=O,1%
O=C(NCc1ccco1)C12CC3CC(CC(C3)C1)C2,4%
CC(C)c1ccc2oc(-c3cc(NC(=O)c4cccs4)ccc3Cl)nc2c1,15%
Cc1ccc(NC(=O)COc2coc(CN3CCc4ccccc43)cc2=O)c(C)c1,1%
Cc1nn(-c2nc(-c3ccc(F)cc3)cc(C(F)(F)F)n2)c(C)c1Br,-24%
O=[N+]([O-])c1cc(NCCO)c(N2CCCCCC2)c2nonc12,-20%
CC(=O)c1ccc(Oc2ccc(C(C)=O)cc2)cc1,6%
COC(=O)c1ccc(COc2ccccc2/C=C(\C#N)C(=O)Nc2ccc(C)cc2C)cc1,9%
O=C(Cc1cccs1)NC1CC(=O)N(c2cccc(F)c2)C1 (stereo not given),15%
Cc1cc(C)n(-c2nc3ccccc3nc2Nc2cc(C(=O)O)ccc2C)n1,-18%
CC(=O)N1CCN(c2ccc(Oc3nc(-c4ccccc4)nc4ccccc34)cc2)CC1,-25%
CCC(CNC(=O)c1c(C)nn(-c2ccccc2)c1Cl)c1ccccc1 (stereo not given),5%
CCCn1c(N)c(N(CCOC)C(=O)C2CCCC2)c(=O)[nH]c1=O,8%
Cc1ccc(S(=O)(=O)CCC(=O)N(Cc2nnc(-c3ccc(Cl)cc3)o2)C2CC2)cc1,3%
CSCCC(C)N1CCC(Oc2ccc(C(=O)N3CCCC3)cc2)CC1 (stereo not given),-19%
CN(Cc1ccccc1)c1ccc2cc(S(=O)(=O)N3CCCCC3)ccc2n1,-7%
O=C(CCC(=O)N1CC2CCCN2c2ccccc21)NCc1ccccc1F (stereo not given),21%
Cc1cc(C)n2nc(C(=O)NCc3ccco3)cc2n1,-16%
O=C(CCC(=O)Nc1ccccc1)N/N=C/c1ccco1,-20%
COC(=O)c1cc(COC(=O)CNC(=O)c2cccc(C)c2)oc1C,-17%
COc1ccc(-c2cc(C(=O)N/N=C/c3cc(OC)c(OC)cc3OC)c3ccccc3n2)cc1,4%
COc1ccccc1N1CCN(CC(=O)NCc2ccc(Cl)cc2)CC1,-11%
Cc1ccc(C(C(=O)NCC2CCCO2)N(C(=O)c2snc(C(N)=O)c2N)c2ccc(F)cc2)o1 (stereo not given),22%
CCCCNC(=O)/C(C#N)=C/c1ccc(C(=O)OC)cc1,-22%
CN(Cc1ccc(OCC(O)CN(C)Cc2ccccc2)cc1)Cc1nccn1C (stereo not given),-7%
COc1cccc(NC(=O)CSc2c3c(nc4ccccc24)CCCC3)c1,?
Cc1c(-c2ccc(Br)cc2)[n+](=O)c2c(n1[O-])CCCCC2,-4%
Cc1cccc(N2C(=O)N3[C@H](c4ccc(Cl)cc4)[C@@H]4C(=O)N(C5CCCCC5)C(=O)[C@@H]4[C@]3(Cc3ccc(Cl)cc3)C2=O)c1,-6%
CN(C)c1ccc(-c2nnn(CC(=O)Nc3ccccc3N3CCOCC3)n2)cc1,2%
Cc1cccc(N(C)C(=O)C(Cc2ccccc2)NS(=O)(=O)c2cccc3nsnc23)c1 (stereo not given),-24%
NC(=O)Cc1ccc(C(=O)c2ccc(F)cc2)s1,15%
CCCCOc1ccc(C(=O)N2CCN(CCc3ccccn3)CC2)cc1,3%
Cc1ccc(S(=O)(=O)NCCN2CCNC2=O)cc1,-5%
Cc1cccc2sc(NC(=O)[C@@H]3CCCN3C(=O)c3cccs3)nc12,12%
O=C(COC(=O)c1cncc(Br)c1)Nc1nc(-c2ccc(F)cc2)cs1,12%
CN(C)S(=O)(=O)c1cccc(NC(=S)Nc2ccc3cn[nH]c3c2)c1,-6%
CCn1c(SCC(=O)N2CCC(C)CC2)nc2c(c1=O)SCC2,-7%
COc1ccc(CC(=O)Nc2ccccc2N2CCOCC2)cc1OC,0%
CC(=O)c1ccc(NC(=O)CN2CCC(C(=O)c3ccc4c(c3)OCCO4)CC2)cc1,6%

# From PubChem

# This is a subset; count on the stated rates, not on these rows.
